Screening results from PubChem.
HCMV NEC inh = disrupts HCMV UL50-UL53 complex binding; AID 1918969; 190,000 tested, 0.15% active; HTRF UL50-UL53 interaction, normalized percent inhibition; inhibition, % (test concentration not listed);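 active = both replicates at 50% or more, plus weaker picks with an unusually low signal ratio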;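 note: stock transfer was 100 nL into about 20 µL; 0% = negative control wells and 100% = wells with untagged competitor protein; inactives centre near -12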
GIV-Gai inh = inhibitors of GIV GBA-motif binding to rat Galpha-i3; Galpha-i3/FITC-GIV peptide fluorescence polarization, 90 min; stronger effect = lower value; scaled: aluminum fluoride 0%, vehicle 100%; percent of control (FP), % (test concentration not listed); 210,000 tested, 0.42% active;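 active = replicate mean at 85% of control or lower, very high polarization wells dropped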;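 note: wells of about 15 µL received 100 nL stock; the first replicate is given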
Target sequence (P08753 whole entry, looked up): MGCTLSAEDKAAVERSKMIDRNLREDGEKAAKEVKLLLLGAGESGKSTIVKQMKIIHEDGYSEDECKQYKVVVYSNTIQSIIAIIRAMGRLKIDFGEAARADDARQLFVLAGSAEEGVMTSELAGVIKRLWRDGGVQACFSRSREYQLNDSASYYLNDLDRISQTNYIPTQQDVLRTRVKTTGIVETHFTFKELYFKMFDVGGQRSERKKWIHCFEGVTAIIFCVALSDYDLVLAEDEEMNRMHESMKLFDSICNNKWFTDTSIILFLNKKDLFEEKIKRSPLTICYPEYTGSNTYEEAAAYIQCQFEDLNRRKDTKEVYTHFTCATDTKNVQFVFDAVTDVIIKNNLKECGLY
Sa growth 42C = S. aureus growth inhibition; S. aureus RN4220 growth, OD600, 20 h, 42 °C; stronger effect = lower value; relative growth, % (test concentration not listed); 170,000 tested, 0.53% active; AID 720641;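 active = growth at 42 °C up to 50% and 20 or more points under that at 30 °C, or under 10% at both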;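 note: 300 nL library stock went into each well; scaled to the means of positive and negative controls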
Sa growth 42C second temp = recorded beside Sa growth 42C, whose call it bears; relative growth, %; measured here: growth at 30 °C;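 optical density after 20 h as mean of two plates; 100% = untreated growth and lower means inhibition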
The depositor's hits bear a star; . = no result given; & = joins results of further samples. An unsorted share of the library, and some 0.85% of all compounds hit somewhere here.

SMILES	HCMV NEC inh	GIV-Gai inh	Sa growth 42C	Sa growth 42C second temp
COc1ccc(OC)c(/C(C)=N/N=C(N)N)c1	-29	.	85	86
COc1ccc(Cl)cc1C(=O)NC1CCCC1	-28	.	88	92
Cn1c(C(=O)N2CCCC(C(=O)N3CCN(c4ccccc4)CC3)C2)cc2sccc21 (stereo not given)	-5	102	109	89
CC(=O)N(c1ccc(Cl)cc1)C1C=CS(=O)(=O)C1 (stereo not given)	4&-12	96&96	86	83
O=C(CCN1C(=O)c2ccccc2S1(=O)=O)NCc1ccccc1	59	106	98	100
C=CCNc1ncnc2sc3c(c12)CCCC3	-3&-10	102&122	97	80
CCCCCCCCCCCCCCCCCC(=O)OC(CC(=O)O)C[N+](C)(C)C (stereo not given)	-7	105	.	.
Cc1nc(-c2ccc(C)c(S(=O)(=O)N3CCC(C(=O)N4CCN(c5ccccc5F)CC4)CC3)c2)no1	-24	102	.	.
Cc1ccc(-c2nnc(SCc3cccc(Cl)c3)o2)cc1	15	97	.	.
COc1ccc(S(=O)(=O)N(CC(=O)Nc2cc(Cl)ccc2C)Cc2ccccc2)cc1OC	-1	103	109	94
O=C1COc2ccccc2N1Cc1nc(-c2ccc(N3CCOCC3)cc2)no1	-22	101	.	.
COc1cccc(C(=O)Nc2cccnc2)c1	-13	107	91	89

Retrieved one by one from the list above (5):
SMILES	HCMV NEC inh	GIV-Gai inh	Sa growth 42C	Sa growth 42C second temp
COc1ccc(OC)c(/C(C)=N/N=C(N)N)c1	-29	.	85	86
O=C(CCN1C(=O)c2ccccc2S1(=O)=O)NCc1ccccc1	59	106	98	100
COc1ccc(Cl)cc1C(=O)NC1CCCC1	-28	.	88	92
CC(=O)N(c1ccc(Cl)cc1)C1C=CS(=O)(=O)C1 (stereo not given)	4&-12	96&96	86	83
COc1ccc(S(=O)(=O)N(CC(=O)Nc2cc(Cl)ccc2C)Cc2ccccc2)cc1OC	-1	103	109	94

Next part
SMILES	HCMV NEC inh	GIV-Gai inh	Sa growth 42C	Sa growth 42C second temp
Cn1c(C(=O)NCc2ccco2)cc2c(=O)[nH]c3ccccc3c21	6	100	126	96
C=CCc1c(C)nc(C)nc1NCCO	-7	.	107	94
CC1CCN(S(=O)(=O)c2ccc3c(c2)OCC(=O)N3)CC1	.	103	82	80
Cn1cc(S(=O)(=O)N2CCCC2)cc1C(=O)NCc1ccccc1	.	103	120	97
Cc1ccc(-c2nn(C)c(=O)c3ccccc23)cc1CN1CCCCC1	1	98	100	89
CC(=O)N(Cc1ccccc1C)c1nc2ccccc2n(CC(=O)Nc2ccc(F)c(Cl)c2)c1=O	-17	108	.	.
COc1ccc(OC)c(NC(=O)C(Cc2ccccc2)NS(=O)(=O)c2ccc3c(c2)CCC(=O)N3)c1 (stereo not given)	-27	103	110	89
C=CCOc1ccc2c(C)cc(=O)oc2c1	4	105	108	96
CCCCN(Cc1ccccc1)c1ncnc2nc[nH]c12	-3	109	84	66
C=CCn1c(O)c(CN2CCOCC2)c(C)c(C#N)c1=O	-5	106	108	79
Nc1nc(-c2ccccc2)c(N=Nc2cccnc2)s1	-42	.	90	95
COc1ccc(CCNC(=O)CCCCCn2c(=O)[nH]c3cc(OC)c(OC)cc3c2=O)cc1OC	3	104	103	102
CCOC(=O)c1c(-n2cnnn2)sc(C)c1C	-20	107	98	96
Cc1cc(F)ccc1NC(=O)CN(C)S(=O)(=O)c1ccc2c(c1)CC(C)N2C(=O)C1CC1 (stereo not given)	-3	104	.	.
Cc1ccc(C(=O)N2CCC(C(=O)O)CC2)cc1	14	105	108	112
CC(C)(C)CC(=O)NCc1ccccn1	-18	.	94	91
COc1ccc(-n2nc(C(=O)Nc3ccc4c(c3)OCCO4)c3c4ccccc4n(C)c3c2=O)cc1	-10	108	88	89
COc1ccc(Br)cc1CNC(=O)c1cc2ccccn2n1	.	105	82	78
CCN1C/C(=C/c2cc(C)n(C3CC3)c2C)C(=O)/C(=C\c2cc(C)n(C3CC3)c2C)C1	-29	.	63	83
Oc1ccc2nnc3c(Br)cnn3c2c1	-47	87	85	63
COC(=O)c1cc(S(=O)(=O)N(Cc2ccc(OC)cc2)Cc2cccn2C)oc1C	-17	106	87	85
COc1ccc(NC(=O)Cn2c(=O)n(Cc3nc(C)no3)c(=O)c3cc4c(cc32)OCO4)cc1	.	105	93	95
COc1cc(C2NC(=O)NC(C)=C2C(=O)OCc2ccc3c(c2)OCO3)ccc1OCc1ccccc1 (stereo not given)	-2	106	.	.
COc1ccc(NC(=O)C2CCN(S(=O)(=O)c3ccc4[nH]c(=O)ccc4c3)CC2)c(OC)c1	.	101	111	91
COc1ccc(C2CC(=O)N(Cc3ccc(C)cc3)c3c2c(C)nn3-c2nc(C)cc(C)n2)c(OC)c1 (stereo not given)	8	98	103	85
COc1ccccc1OCC(=O)Nc1nc2c(s1)CC(C)CC2 (stereo not given)	4	100	103	86
CCCn1cnc2scc(-c3ccc(OC)cc3)c2c1=O	2	.	87	93
COc1ccc(N2CCN(C3CC(=O)N(CCc4ccccc4)C3=O)CC2)cc1 (stereo not given)	-4	101	101	99
CCCN(C(=O)Cn1ncc2c1-c1ccccc1OC2)c1ccccc1F	6	102	103	75
Nc1ccc(-c2nc3cc(Cl)ccc3o2)c(O)c1	-12	.	92	82
CC1=CC(C)(C)N=C(Nc2nc(C)c3cc(C)cc(C)c3n2)N1	10	.	81	68
O=C(CSc1nc(-c2ccccc2)cc(-c2ccccc2)n1)N=C1NC(=O)CS1	3	116	94	81
CC(NC(=O)COc1ccccc1)C(=O)O (stereo not given)	-1	.	80	90
COCCNC(=O)CCCCn1c(=O)[nH]c2cc(OC)c(OC)cc2c1=O	-33	107	.	.
Cn1c(C(C#N)c2cnn(-c3ccccc3)c(=O)c2Br)nc2ccccc21 (stereo not given)	-38	.	103	87
COc1ccc(C(=O)NN2CC(=O)N(C(C)C)C2=O)c2ccccc12	-37	105	96	88

Next part; the last three above are carried over.
SMILES	HCMV NEC inh	GIV-Gai inh	Sa growth 42C	Sa growth 42C second temp
COCCNC(=O)CCCCn1c(=O)[nH]c2cc(OC)c(OC)cc2c1=O	-33	107	.	.
Cn1c(C(C#N)c2cnn(-c3ccccc3)c(=O)c2Br)nc2ccccc21 (stereo not given)	-38	.	103	87
COc1ccc(C(=O)NN2CC(=O)N(C(C)C)C2=O)c2ccccc12	-37	105	96	88
O=C(CCCc1nnc2c(=O)n(-c3cccc(F)c3)ccn12)Nc1ccc(F)cc1	-3	108	.	.
c1ccc(N2CN3CN2CN3c2ccccc2)cc1	.	108	106	103
COc1ccc(C2CC(=O)c3cc(C(=O)Nc4ccc5c(c4)OCCO5)c(=O)[nH]c3C2)cc1 (stereo not given)	-28	103	.	.
O=C(O)C(Cc1cnc[nH]1)NC1CNN=C1c1ccc(Cl)cc1 (stereo not given)	-37	.	87	79
CCOC(=O)c1c(C)oc2ncnc(Nc3ccc(OCC)cc3)c12	.	103	88	94
NC(=O)C1CCCN(C(=O)Nc2c[nH]c3ccccc3c2=O)C1 (stereo not given)	-26	102	103	80
Cc1ccc(/C=C2/NC(=O)N(Cc3ccc(Br)cc3)C2=O)o1	4	106	108	82
COc1ccc(OC)c(C2=NS(=O)(=O)N(C)C(C(=O)Nc3ccc(F)cc3F)=C2)c1	-21	95	114	86
CCOC(=O)NC(=S)Nc1ccc(NC(=O)c2cc(Cl)ccc2O)c(Cl)c1	.	100	108	86
CN(C)S(=O)(=O)NC1CC(=O)N(c2ccc(F)cc2)C1 (stereo not given)	-38	100	95	84
CCn1c(=O)c(CCc2ccccc2)nc2cc(S(=O)(=O)N(C)C)ccc21	-12	.	109	98
Cn1c(=O)c2c(nc(CN3CCC(Cc4ccccc4)CC3)n2Cc2ccccc2)n(C)c1=O	-35	101	.	.
Cc1cccc(N2C(=O)NC(=O)/C(=C/c3cn(CC(=O)Nc4ccccc4)c4ccccc34)C2=O)c1	11	109	.	.
CN(C)c1ccc(/C=C/CN2CCCCCC2)cc1	-33	107	85	108
COc1ccc(Nc2nnc(-c3ccc(C)c(S(=O)(=O)NCCO)c3)c3ccccc23)cc1C(N)=O	-123	107	107	84
COc1ccc(C2CC(=O)C3=C(C2)Nc2ccccc2NC3c2ccc(O)c([N+](=O)[O-])c2)cc1OC (stereo not given)	-73	95	.	.
CC(C)N1C(=O)S/C(=C/c2ccc3c(c2)OCCO3)C1=O	-61	96	84	85
O=C(NC1CCCCC1)C(c1cccs1)N(Cc1ccco1)C(=O)C1COc2ccccc2O1 (stereo not given)	-9	101	102	84
O=P(/C(=N/O)Sc1ccccc1)(N1CCOCC1)N1CCOCC1	9	104	94	97
COc1ccc(Nc2nc(NC(=O)Nc3ccc(Cl)cc3)n[nH]2)cc1	-4	101	128	87
CCC(=O)Oc1cccc(-n2cnnn2)c1	-38	99	.	.
O=C(Nc1cccc(F)c1)c1nnc(CCCC(=O)N2CCN(c3ccccn3)CC2)s1	5	104	.	.
CCOC(=O)/C=C1\SCC(=O)N1C(C)C(=O)Nc1ccc2c(c1)OCCO2 (stereo not given)	0	.	107	89
CCn1c2ccccc2c2cc(NS(C)(=O)=O)ccc21	12	107	91	81

Grouped by structure, the compounds so far with a thiophene ring, fused or not
SMILES	HCMV NEC inh	GIV-Gai inh	Sa growth 42C	Sa growth 42C second temp
Cn1c(C(=O)N2CCCC(C(=O)N3CCN(c4ccccc4)CC3)C2)cc2sccc21 (stereo not given)	-5	102	109	89
C=CCNc1ncnc2sc3c(c12)CCCC3	-3&-10	102&122	97	80
CCOC(=O)c1c(-n2cnnn2)sc(C)c1C	-20	107	98	96
CCCn1cnc2scc(-c3ccc(OC)cc3)c2c1=O	2	.	87	93
O=C(NC1CCCCC1)C(c1cccs1)N(Cc1ccco1)C(=O)C1COc2ccccc2O1 (stereo not given)	-9	101	102	84

(next part)
SMILES	HCMV NEC inh	GIV-Gai inh	Sa growth 42C	Sa growth 42C second temp
CCN(CC)C(=O)C12CC3CCC(CC(C3)C1)C2	.	104	73	87
O=C(NC1CCCC1)C(c1ccncc1)N(Cc1ccco1)C(=O)Cn1nnc(-c2ccc(Cl)cc2)n1 (stereo not given)	-2	102	108	93
Cc1cc2nc(COC(=O)c3ccc(NC(=O)c4cccc(F)c4)cc3)cc(=O)n2o1	-18	102	.	.
Cc1ccc(C2CC(=O)c3cnc(N4CCOCC4)nc3C2)cc1 (stereo not given)	-6	102	95	86
Cc1nn(Cc2ccccc2Cl)c(=O)c2noc(C)c12	-34	109	.	.
O=C(CCN1C(=O)C2CC=CCC2C1=O)OCn1nnc2ccccc2c1=O (stereo not given)	-23	.	98	91
Cc1ccc(Nc2cc(C(=O)NCc3ccco3)c3ccccc3n2)c(C)c1	-11	107	87	91
CCc1ccc(NC(=O)c2ccc(NC(=O)C3CCCO3)cc2)cc1 (stereo not given)	.	103	101	76
Cc1ccc(-c2cccc3c(C(=O)NCCN(C)Cc4ccccc4)cc(C)nc23)cc1	-33	106	.	.
O=C1C(c2ccnc3ccccc23)=C(O)c2ccccc21	-40	64*	100	95
CC1CCN(C(=O)COc2ccc(F)cc2)CC1	.	100	110	92
Cc1noc(-c2ccccc2OC(=O)c2ccccc2)n1	.	106	103	85
COc1ccc2[nH]cc(C(=O)O)c(=O)c2c1	-17	103	77	77
Cc1cc(Cn2cnc3c2C[C@@H](C(=O)O)N(C(=O)C(c2ccccc2)c2ccccc2)C3)ccc1N	-14	95	.	.
O=C(NCc1cccnc1)c1cnn2ccccc12	-5	105	107	89
CC1(C)CC(=O)C2=C(C1)OC(N)=C(C#N)C2c1ccccc1OCc1ccc(Cl)cc1 (stereo not given)	-5	104	.	.
Cc1cc(C(=O)COC(=O)c2ccc3c(c2)C(=O)N(CCC(C)C)C3=O)c(C)n1-c1nccs1	-4	.	89	85
CC1=C(C(N)=O)C(c2cccc(F)c2)n2nc(SCc3ccccc3)nc2N1 (stereo not given)	.	102	102	65
NC(=O)c1cc(S(=O)(=O)NC2CCCCCCC2)cs1	.	98	101	84
NC(=O)C1CCN(C(=O)CSCc2ccc(Br)cc2)CC1	-12	108	110	94
CCc1ccccc1NS(=O)(=O)c1ccc2c(c1)CCCN2C(=O)C1CCC1	.	105	63	85
N#CSCCCOc1ccc(Cl)cc1	4	109	96	99
O=C(CC1CCCC1)Nc1nc2ccccc2s1	-33	.	73	89
Cc1cccn2cc(CNC(=O)CC3CCCCC3)nc12	-20	107	94	82
COc1ccc(NC2=C(c3ccccc3)C(=O)c3ccccc32)cc1Cl	7	104	104	101
Cc1cc(C)nc(NC(N)=NCc2ccccc2)n1	.	104	93	86
COc1ccc(Cn2ccnc2SCC(=O)Nc2ccc3c(c2)OCO3)cc1	.	98	103	75
